# KCNQ2 enhance: enhances the rat KCNQ2 potassium channel. CHO-K1 KCNQ2, FluxOR thallium flux fluorescence; active compounds read high. B-score at 10 µM. actives 0.54% (n = 310,000);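 active = fluorescence ratio B-score at least 3 SD of library B-scores, with initial fluorescence B-score within 3 SD, cut at about 5.3 in these data; same plate scores as AID 2156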;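 note: B-score of peak minus minimum over baseline fluorescence ratio after K+ and Tl+ stimulus; positive B-score means potentiation of KCNQ2 with more thallium influx and brighter signal; only the inactives scoring about 0 or higher are listed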
# Target sequence (O88943 whole entry, looked up): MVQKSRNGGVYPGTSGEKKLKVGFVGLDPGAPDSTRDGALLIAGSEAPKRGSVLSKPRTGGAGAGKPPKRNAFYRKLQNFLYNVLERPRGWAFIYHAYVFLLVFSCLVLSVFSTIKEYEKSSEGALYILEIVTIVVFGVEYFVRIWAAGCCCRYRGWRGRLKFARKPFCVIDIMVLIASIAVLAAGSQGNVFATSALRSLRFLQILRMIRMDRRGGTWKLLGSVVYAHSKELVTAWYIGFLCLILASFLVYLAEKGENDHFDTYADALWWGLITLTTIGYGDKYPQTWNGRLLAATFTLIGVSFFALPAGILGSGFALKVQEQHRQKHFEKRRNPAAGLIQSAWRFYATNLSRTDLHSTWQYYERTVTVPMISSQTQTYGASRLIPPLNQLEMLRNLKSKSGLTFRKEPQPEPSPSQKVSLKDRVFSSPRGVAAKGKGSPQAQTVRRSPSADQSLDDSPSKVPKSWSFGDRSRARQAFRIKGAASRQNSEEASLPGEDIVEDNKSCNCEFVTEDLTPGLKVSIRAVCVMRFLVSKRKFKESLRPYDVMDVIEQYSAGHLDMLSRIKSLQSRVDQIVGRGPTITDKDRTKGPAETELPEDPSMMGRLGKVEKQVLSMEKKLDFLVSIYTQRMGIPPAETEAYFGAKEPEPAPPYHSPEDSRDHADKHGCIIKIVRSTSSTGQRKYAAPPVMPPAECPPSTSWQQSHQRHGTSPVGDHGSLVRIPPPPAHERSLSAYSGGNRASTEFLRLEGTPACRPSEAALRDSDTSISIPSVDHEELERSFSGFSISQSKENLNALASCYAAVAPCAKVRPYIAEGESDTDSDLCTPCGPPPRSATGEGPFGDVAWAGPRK
# KCNQ2 enhance baseline: second read-out of KCNQ2 enhance, no call of its own (marks repeat the call); B-score; compound at 10 µM; measured here: initial fluorescence intensity artifact check;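 brightness before thallium and not channel activity; 0 = typical well and far values either way flag optical interference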
# Starred values were filed as active, the others as inactive.
mol | KCNQ2 enhance | KCNQ2 enhance baseline
O=C(c1cccc(NS(=O)(=O)c2ccc(F)cc2)c1)N1CCN(c2ccccc2)CC1 | 0.68 | -1.55
O=[N+]([O-])c1ccc(Nc2cccc(F)c2)nc1 | 4.47 | -1.47
Cc1cccn2c(=O)c3cc(C#N)c(=NC(=O)c4cccnc4)n(CC4CCCO4)c3nc12 (stereo unspecified) | 0.58 | 0.63
CCn1c(=O)cc(OCC(=O)NC2CC2)c2ccccc21 | 1.3 | 0.61
Cc1ccc(S(=O)(=O)NCCC(=O)NC2CCN(Cc3ccccc3)CC2)cc1 | 0.63 | 0.38
O=C(/C=C\Nc1ccc(Br)cc1)c1cccnc1 | 0.17 | 0.26
C/C(=N\NC(=O)c1ccc(Cl)cc1)c1cccnc1 | 1.94 | -0.85
CC1CN(c2ccc(NC(=S)NNCCC#N)cc2)CC(C)O1 (stereo unspecified) | 0.1 | -1.5
CC(=O)c1ccc(NC(=S)NN2C(C)CCCC2C)cc1 (stereo unspecified) | 0.81 | 0.86
Cc1ccc(S(=O)(=O)N2CCN(C(=O)CSc3ncc(C(F)(F)F)cc3Cl)CC2)cc1 | 4.99 | -0.65
CCOc1ccc(OCCC(=O)N2CCN(S(=O)(=O)c3cccc(F)c3)CC2)cc1 | 0.1 | 0.25
O=C1CCCN1CCC(=O)N1CCCC(Nc2ccc(F)cc2)C1 (stereo unspecified) | 0.92 | -0.27
COc1ccc(OCC(O)CNC(=O)/C=C/c2cccc([N+](=O)[O-])c2)cc1 (stereo unspecified) | 0.7 | 0.66
CC1CCN(C(=O)COc2ccc3ccccc3c2Br)CC1 | 16.2* | 0.02*
COC(=O)c1ccc(SCc2cnc(Cl)s2)cc1 | 0.31 | 1.35
COc1ccc(C(NC(N)=O)c2ccccc2)cc1 (stereo unspecified) | 4.09 | -0.43
C/C(CC(=O)Nc1cccc(Cl)c1Cl)=N\NC(=O)C(=O)N1CCCC1 | 0.61 | -1.83
C=CCN1C(=O)c2ccc(C(=O)N3CCN(S(=O)(=O)c4ccc(C(C)C)cc4)CC3)cc2C1=O | 0.14 | 0.6
O=C(Nc1cccnc1)c1c(F)cccc1F | 0.14 | 0.67
Cc1ccc(NC(=O)CSCc2nc3c(nnn3Cc3ccc(F)cc3)c(=O)[nH]2)c(C)c1 | 0.63 | 1.29
Cc1ccc(C(=O)Nc2cccc([N+](=O)[O-])c2)cc1S(=O)(=O)Nc1ccc(C(=O)O)cc1 | 1.12 | 0.89
CCn1cnc2cc(NCc3ccc(N(C)C)cc3)ccc21 | 0.04 | 1.19
O=C(Cc1ccccc1Cl)Nc1cccc(S(=O)(=O)N2CCOCC2)c1 | 0.86 | -0.54
Cc1c(CCC(=O)NCC(=O)O)c(=O)oc2cc3occ(-c4ccccc4)c3cc12 | 1.81 | 0
O=C(COc1ccccc1Cl)Nc1ccc(C(=O)c2ccc(C(=O)O)cc2)cc1 | 2.07 | -0.03
COc1ccc(/C=C2\C(=O)ON=C2c2ccccc2)cc1OC | 0.58 | -0.1
CC(=O)Nc1ccc(S(=O)(=O)NC2=NCN(c3ccc([N+](=O)[O-])cc3)CN2)cc1 | 0.54 | 1.2
N#Cc1cccc(C#N)c1NCC1CCCO1 (stereo unspecified) | 0.8 | -0.39
O=C(CCS(=O)(=O)c1cccc2nonc12)NCc1ccc(Cl)cc1 | 0.14 | -0.01
O=[N+]([O-])c1ccccc1CN1CCN(Cc2ccccn2)CC1 | 0.22 | 0.61
CC(C)(C)NC(=O)C(OC(=O)c1ccco1)c1ccccc1F (stereo unspecified) | 0.09 | 0.78
Cc1cc(C)nc(SCC(=O)c2ccc(F)cc2F)n1 | 0.22 | 0.7
COc1ccc(C(=O)N/C(=C\c2ccccc2)C(=O)NCCCn2ccnc2)cc1 | 0.91 | -0.74
COC(=O)c1nnn(-c2nonc2N)c1CSc1nnc(C)s1 | 0.64 | -1.05
S=C(Nc1ccc(Cl)cc1)N1CCCCC1 | 0.75 | 0.67
C/C=C\C(=O)Nc1cccc(C2=NOC3(C2)C[C@H](C(N)=O)N(C(=O)/C=C/CC)C3)c1 (stereo partly specified) | 0.84 | -0.07
Cc1cc(OCC(=O)NCc2cccnc2)ccc1[N+](=O)[O-] | 1.31 | 2.81
Cc1cc(S(=O)(=O)Nc2cccc(C(=O)O)c2)c(C)c(S(=O)(=O)c2ccc(Cl)cc2)c1 | 0.11 | -0.11
CC1CCCCN1C(=O)COc1ccc(F)cc1 (stereo unspecified) | 0.89 | 0.02
CC(C)c1ccc(C2c3[nH]c4ccccc4c3C[C@H]3C(=O)N(c4ccccc4C(=O)N4CCC(C(=O)O)CC4)C(=O)N23)cc1 (stereo partly specified) | 1.42 | 0.18
CCC(C)NC(=O)N[C@@H](Cc1ccccc1)C(=O)O (stereo partly specified) | 0.05 | -1.15
O=C(CN1C(=O)CSCC1=O)Nc1ccc2c(c1)OCO2 | 0.7 | 0.36
CCO[C@H]1OC(C(=O)O)=C[C@@H](C)[C@@H]1CCCO | 0.81 | -0.06
COc1ccc(CC(=O)NNC(=O)c2cnccn2)cc1 | 0.83 | 0.77
O=S(=O)(NC1=NCCC1)c1ccc(F)cc1F | 0.53 | -0.28
Cc1cc(SC(C)C(=O)Nc2ncc(Cl)cc2Cl)nc2ccccc12 (stereo unspecified) | 0.86 | -0.04
Cc1c([N+](=O)[O-])c([N+](=O)[O-])nn1CC(=O)NCCc1ccccc1 | 0.04 | 2.17
Cc1ccc(NC(=O)N2CCCC2C(=O)Nc2c(C)cc(C)cc2C)cc1 (stereo unspecified) | 1.85 | -0.1
CCOC(=O)c1ccc2c(c1)nc(SCC(=O)NC(C)C)n2CC | 2.44 | -0.08
CCOC(=O)C(NC(C)=O)(Nc1ccc(S(=O)(=O)Nc2cc(C)on2)cc1)C(F)(F)F (stereo unspecified) | 0.56 | -0.42

# Later entries.
mol | KCNQ2 enhance | KCNQ2 enhance baseline
COc1ccc(/C=C(\NC(=O)c2ccccc2)C(=O)N/N=C/c2ccncc2)cc1 | 0.13 | -0.83
CC(=O)Nc1ccc(N/C=C/C(=O)c2ccc(C)o2)cc1 | 0.01 | -0.25
COC(=O)Cc1ccc2sc(-c3ccccc3)nc2c1 | 0.01 | 0.18
CSc1cc(C)c(OCC(=O)Nc2ccc(NC(C)=O)cc2)c(C)c1 | 0.09 | 0.37
CC(=O)Nc1c(O)nc(SCC(=O)Nc2nnc(SCc3ccccc3)s2)[nH]c1=O | 0.83 | 0.28
CCCn1c(-c2ccc(F)cc2)cnc1SCC(=O)O | 1.53 | -1.21
CCN(CC)CCn1c(NS(=O)(=O)c2ccc(Cl)cc2)nc2ccccc21 | 0.2 | -1.33
CCOC(=O)Nc1sc(C(=O)N(C)C)c(C)c1C(=O)OCC | 0.32 | -2.92
O=C(CN1C(=O)NC2(CCc3ccccc3C2)C1=O)Nc1ccc(Cl)cc1F (stereo unspecified) | 0.02 | 0.13
CC1CCCN(C(=S)SCC(=O)O)C1 (stereo unspecified) | 0.23 | -0.53
CC(OC(=O)c1cc(S(=O)(=O)N(C)C)ccc1N1CCCC1)C(=O)NCc1ccccc1 (stereo unspecified) | 1.29 | -1.55
CNC(=O)COc1ccc(Nc2nnc(C)c3ccccc23)cc1 | 1.28 | -1.96
CCOC(=O)c1cc(-c2ccccc2)sc1NC(=S)Nc1cc(C)ccn1 | 0.23 | 2.8
CC(=O)Nc1ccc(S(=O)(=O)Nc2cccc(NC(=O)c3ccco3)c2)cc1 | 0.87 | 0.19
Cc1cccc(NC(=O)CN(C)S(=O)(=O)c2cccc3nsnc23)c1C | 0.84 | -0.14
O=C(O)CC(Cc1ccc(Br)cc1)C(=O)O (stereo unspecified) | 0.76 | 0.35
O=C(COC(=O)c1ccc(S(=O)(=O)N2CCCC2)cc1)NCc1cccs1 | 0.01 | 0.14
CN(C)c1cc(NC(=O)CNC(C)(C)CC(C)(C)C)c2ccccc2n1 | 2.39 | 0.17
CCOc1c(C)cc(S(=O)(=O)NCc2ccccn2)c(C)c1C | 0.89 | 0.34
Cc1c(C(=O)N2CCOCC2)sc2ncnc(N3CCc4ccccc4C3)c12 | 0.58 | -1.07
COc1cn(-c2ccccc2)nc1C(=O)Nc1ccccc1 | 0.16 | 0.06
CN1CCN(S(=O)(=O)c2ccc(Cl)cc2)CC1 | 0.68 | 1.07
Cc1cccc(C2CC(c3ccc(F)cc3)Nc3nc(N)nn32)c1 (stereo unspecified) | 0.48 | -0.07
CCN(CC)CCNc1ncnc2c1sc1nc(N3CCOCC3)c3c(c12)CC(C)(C)SC3 | 0.52 | 0.19
COc1ccc(C(=O)CN2C(=O)NC3(CCCc4ccccc43)C2=O)c(OC)c1 (stereo unspecified) | 0.42 | 1.43

# Exported with values under each structure: part of the list above.
# Each structure is followed by: KCNQ2 enhance, KCNQ2 enhance baseline
CC(OC(=O)c1cc(S(=O)(=O)N(C)C)ccc1N1CCCC1)C(=O)NCc1ccccc1 (stereo unspecified)
→ 1.29, -1.55
CNC(=O)COc1ccc(Nc2nnc(C)c3ccccc23)cc1
→ 1.28, -1.96
CCOC(=O)c1cc(-c2ccccc2)sc1NC(=S)Nc1cc(C)ccn1
→ 0.23, 2.8
CC(=O)Nc1ccc(S(=O)(=O)Nc2cccc(NC(=O)c3ccco3)c2)cc1
→ 0.87, 0.19
Cc1cccc(NC(=O)CN(C)S(=O)(=O)c2cccc3nsnc23)c1C
→ 0.84, -0.14
O=C(O)CC(Cc1ccc(Br)cc1)C(=O)O (stereo unspecified)
→ 0.76, 0.35
O=C(COC(=O)c1ccc(S(=O)(=O)N2CCCC2)cc1)NCc1cccs1
→ 0.01, 0.14

# (more compounds)
mol | KCNQ2 enhance | KCNQ2 enhance baseline
COc1ccc(C2CC(=O)c3cnc(NC(=O)c4ccccc4OC)nc3C2)c(OC)c1 (stereo unspecified) | 0.51 | -0.01
Cc1cccc(Nc2c([N+](=O)[O-])cc(C(=O)N3CC(=O)Nc4ccccc43)cc2[N+](=O)[O-])c1 | 0.09 | -2.2
Cc1onc(-c2ccccc2)c1C(=O)Nc1ccc(S(=O)(=O)N2CCOCC2)cc1 | 0.06 | -1.98
Nc1nc(-c2nc3ccccc3[nH]2)cs1 | 0.64 | -3.7
COc1ccc(/C=C(\NC(=O)c2ccc(OC)c(OC)c2)C(=O)N2CCN(C)CC2)cc1 | 0.95 | 0.87
COC(=O)c1cc(C(=O)Nc2ccc(S(N)(=O)=O)cc2)cc([N+](=O)[O-])c1 | 1.75 | 0.03
COc1cc(NC(=O)c2cccs2)c(C(=O)OCC(=O)NC(C)c2ccccc2)cc1OC (stereo unspecified) | 0.05 | 0.12
Cn1c(N)c(C(=O)COc2ccc(C#N)cc2)c(=O)n(C)c1=O | 1.31 | -2.38
CC(=O)c1ccc(/C=C/c2nc3ccccc3n2C)o1 | 0.66 | 3.41
COC(=O)c1ccc(S(=O)(=O)NNC(=O)c2ccc(S(=O)(=O)N3CCCCC3)cc2)cc1 | 0.49 | 0.64
Cc1cc(O)c(/C=N/OCc2ccc(Cl)cc2Cl)c(=O)o1 | 0.91 | -1.48
Cc1c(C)n(CCc2ccccc2)c2ncnc(NCCO)c12 | 1.73 | -0.41
CCOC(=O)c1c(C)[nH]c(C(=O)COC(=O)/C=C/c2ccc(OC(F)F)cc2)c1C | 0.53 | -1.61
CC(=O)NCCOc1cccc2ccccc12 | 0.73 | -0.75
Cc1ccc(C(=O)NCC(=O)OCC(=O)Nc2ccccc2[N+](=O)[O-])cc1 | 1.24 | -0.45
CN1C(=O)CC(C(=O)O)SC1=Nc1ccc(F)cc1 (stereo unspecified) | 1.36 | -0.04
CCn1c(SCC(=O)NCC2CCCO2)nnc1-c1ccc(S(=O)(=O)N2CCN(C)CC2)cc1 (stereo unspecified) | 0.92 | -0.26
CC(C)n1cc(CN2CCC(C(=O)Nc3cccc(-c4cscn4)c3)CC2)cn1 | 0.03 | 0.08
Cc1ccc(C)c(N2CCN(C(=O)CCC(=O)Nc3nnc(CC(C)C)s3)CC2)c1 | 1.43 | 0.12
O=S(=O)(NCc1ccco1)c1ccc(Cl)cc1Cl | 1.74 | 0.76
CCOC(=O)c1cc(S(=O)(=O)NC2CCC(C)CC2)cn1C (stereo unspecified) | 0.09 | -1.42
CCCC(=O)N(CCc1ccccc1)Cc1nc2ccccc2c(=O)[nH]1 | 0.41 | 0.78
Cc1cc(C(=O)COc2ccccc2C(N)=O)c(C)n1CC1CCCO1 (stereo unspecified) | 0.08 | -3.19
O=C(NCCOc1ccccc1)C1CCCCC1 | 1.16 | 1.82
Cc1ccc(Sc2ccc(C(=O)N3CCOCC3)cc2[N+](=O)[O-])cc1 | 1.37 | 0.88
CCOC(=O)c1c(CN2CCN(C)CC2)oc2ccc(OC)cc12 | 1.7 | 0.59
CCOCCn1c(N2CCN(c3ccccc3)CC2)nc2c1c(=O)[nH]c(=O)n2C | 1.61 | -0.44
COc1ccc(CCNc2ncnc3c2c(C)c(C)n3CCO)cc1OC | 0.56 | 0.69
COc1ccc(Nc2nc(NCCO)nc(N3CCCC3)n2)cc1 | 0.67 | 1.3
O=C(COC(=O)/C=C/c1ccc(F)cc1)Nc1cccc(S(=O)(=O)N2CCCC2)c1 | 1.36 | -0.24
Cc1ccc(NC(=O)COC(=O)CCOc2ccccc2C)cc1 | 0.73 | -0.02
Cc1nnc(SCC(=O)NCCN2C(=O)CSC2=O)n1-c1ccccc1 | 0.52 | 0.37
CCC(NC(=O)c1ccc([N+](=O)[O-])cc1[N+](=O)[O-])c1ccccc1 (stereo unspecified) | 0.65 | -0.39
Cc1ccc(CNS(=O)(=O)c2ccc3c(c2)NC(=O)CS3)cc1 | 0.4 | -0.45
COc1ccc(CCNC(=O)CCn2c(=O)c3ccccc3n(CC(=O)NCC3CCCO3)c2=O)cc1OC (stereo unspecified) | 2.52 | -0.58
CCC(=O)N1CCc2cc(S(=O)(=O)CCC(=O)Nc3ccc(OC)c(OC)c3)ccc21 | 0.05 | 1.22
Cc1cccn2c(=O)c3cc(C(=O)NCCN4CCOCC4)c(=N)n(Cc4cccnc4)c3nc12 | 0.09 | 1.19
CCOC(=O)COc1nc(OC)nc(N2CCOCC2)n1 | 0.96 | -0.84

# Compound activity from PubChem.

# These rows are one share of the data, so the mix of outcomes need not match the whole.
